# Methyltransferases: Primary Screen for Target Class Profiling of Small Molecule Inhibitors of Methyltransferases. calls only at 40 µM. purified enzyme, MTase-Glo SAH luminescence; stronger effect = lower value. AID 1745853, 2022. hit rate 3.9% among 25,000; active = -50% or lower on at least one of six enzymes; inconclusive = the cases between; inactive = as a rule above -30% on all six;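 also: enzymes were COMT GAMT GNMT HNMT NNMT and PNMT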
#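 Each enzyme was assayed with SAM and its substrate. SAH formation detected by MTase-Glo luminescence; single-point 40 uM screen[…].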
# Calls only; i = inactive; ? = inconclusive; + = active, no number. % is scaled to controls: 0 for no effect and ±100 for the full control effect. These rows are one share of the data; rates above refer to the full screens.
Structure,Methyltransferases
COc1ccccc1NC(=O)Nc1ccc2n(c1=O)C[C@H]1C[C@@H]2CN(C(=O)Cc2cccs2)C1,i
CCc1cccc(N2C(=O)c3cc(-c4ccccc4)nn3CC2(C)C(=O)NCc2ccccc2)c1 (stereo not drawn),i
COC(=O)C1=COC(O[C@@H]2O[C@H](COC(=O)/C=C/c3ccc(O)cc3)[C@@H](O)[C@H](O)[C@H]2O)C2C(CO)=CCC12 (stereo partly drawn),i
O=C1Cc2ccccc2N1,?
C=C1C(=O)O[C@@H]2C/C(C)=C\C(=O)/C=C(\C)[C@@H](OC(=O)/C(C)=C\C)[C@H](O)[C@@H]12,i
COc1cccc(CN2CCCCC2c2nc(CCOCC3CCOCC3)no2)c1 (stereo not drawn),i
Cn1c(=O)c2ccc(C(=O)NC3CCCCC3)cc2n2c(=O)n(CC(=O)c3ccccc3)nc12,i
C/C=C\NC(=O)C1NC(=O)C(CC(N)=O)NC(=O)C(NC(=O)C(=O)C(C)CC)Cc2ccc(O)c(c2)-c2cccc3c2NC(=O)C3(O)C1O (stereo not drawn),i
Cn1cnnc1CC1CCN(C(=O)CN2CC(c3ccccc3)CC2=O)CC1 (stereo not drawn),i
Cc1cc(C)c(S(=O)(=O)NCCc2n[nH]c(Cc3ccccc3)n2)cc1C,i
COc1ccc(-c2cc3n(n2)CC(C)(C(=O)NC2CCCCC2)N(Cc2ccco2)C3=O)cc1 (stereo not drawn),i
Cc1nn(C)c(C)c1CCN(C)C(=O)C1CCN(C(=O)N2CC3CC(C2)[C@H]2CCCC(=O)N2C3)CC1 (stereo partly drawn),i
CCC(C)NC(=O)c1ccc2c(=O)n(C)c3nn(Cc4ccc(Cl)cc4)c(=O)n3c2c1 (stereo not drawn),i
O=C(COc1cc2oc(=O)cc(-c3ccccc3)c2cc1Cl)OCc1ccccc1,i
COc1ccc(OC2CCN(C3CCCC3)CC2)c(C(=O)NCCCN2CCCC2=O)c1,i
CNC(=O)c1cc(C)nc2onc(C3CCN(C(=O)C4CCCC4)CC3)c12,i
FC(F)(F)c1cccc(C2=NOC3(CCN(Cc4ccccc4)CC3)C2)c1,i
CC1(C=O)CC[C@]2(C(=O)O[C@@H]3O[C@H](CO)[C@@H](O)[C@H](O)[C@H]3O)CC[C@]3(C)C(=CCC4[C@@]5(C)C[C@H](O)[C@H](O[C@@H]6OC[C@@H](O)[C@H](O)[C@H]6O)[C@@](C)(CO)C5CC[C@]43C)C2C1 (stereo partly drawn),i
c1ccc2c(c1)CCN2c1nccnc1OC1CCNC1 (stereo not drawn),i
CC1CC(C)CN(S(=O)(=O)c2ccc3c(c2)oc(=O)n3CC(=O)NC(C)c2ccccc2)C1 (stereo not drawn),i
Cc1nn2c(c1-c1ccccc1C(C)C)N(Cc1ccc(C(=O)O)s1)CCC2,i
CCOC(=O)c1cc2n(n1)CC(C)(C(=O)NCCCOC)N(c1ccc(OC)c(OC)c1)C2=O (stereo not drawn),i
COCCCc1sc(-c2ccccc2)nc1C(=O)Nc1ccccc1-c1nc2cc(CN3CCCC3)cnc2s1,?
COc1cccc(-c2cc(C3CCN(C(=O)Nc4ccccc4C(F)(F)F)CC3)[nH]n2)c1,i
CN(C)S(=O)(=O)N1CCC(Oc2ccc(C(=O)NCCc3ccncc3)cc2)CC1,i
COc1cc(NC(=O)c2cccc(-n3cc(NC(=O)Nc4cccc(C)c4)cn3)c2)cc(OC)c1OC,i
COCCN1CCCC2(CCN(C(=O)CCn3cncn3)C2)C1=O (stereo not drawn),i
O=C(NCc1ccco1)C1COC2(CCN(C(=O)c3ccc(F)cc3)CC2)N1C(=O)c1ccco1 (stereo not drawn),i
NCCCC(=O)N1CCCC2(Cc3ccccc3CN2C(=O)c2cccc(Cl)c2)C1 (stereo not drawn),i
CC(C)=CCC[C@](C)(O[C@@H]1O[C@H](CO[C@@H]2OC[C@@H](O)[C@H](O)[C@H]2O)[C@@H](O)[C@H](O)[C@H]1O)[C@H]1CC[C@]2(C)[C@@H]1[C@H](O)C[C@@H]1[C@@]3(C)CC[C@H](O[C@@H]4O[C@H](CO)[C@@H](O)[C@H](O)[C@H]4O)C(C)(C)[C@@H]3CC[C@]12C,i
O=C(CCn1ccc2cc(S(=O)(=O)N3CCCCC3)ccc21)NCCCc1ccccc1,i
CC1(C(=O)NC2CCCCC2)Cn2c(cc3ccccc32)C(=O)N1CCN1CCOCC1 (stereo not drawn),i
CC(O)C(O)/C=C/C=C/C(=O)O[C@@H]1C=C(C(=O)O)[C@](O)(CO)[C@@]2(C)CCCC(C)(C)[C@H]12 (stereo partly drawn),i
CCc1ccccc1NC(=O)Cn1nc2n(C)c(=O)c3ccc(C(=O)NC4CCCCC4)cc3n2c1=O,i
O=C(CCc1nnc2ccc(NCc3ccccc3Cl)nn12)NCC1CCCO1 (stereo not drawn),i
Cc1ccc(CNC(=O)N2CCCC(CN3CCC(C)CC3)CC2)cc1 (stereo not drawn),i
CC(C)Cn1c(=O)c2ccccc2n2c(SCC(=O)Nc3ccc4c(c3)OCO4)nnc12,i
CCCN1C(=O)c2c(C(=O)NCCC(C)C)ncn2CC1(C)C(=O)NCCC(C)C (stereo not drawn),i
CC1(C(=O)NC2CCCC2)Cn2c(ccc2-c2ccco2)C(=O)N1Cc1ccc(Cl)cc1 (stereo not drawn),i
CC(C)Cn1nc(C(=O)O)c2c1CCN(C(=O)CC(C)c1ccccc1)C2 (stereo not drawn),i
Cc1ccc(NS(=O)(=O)c2cc3c(cc2Cl)n(C)c(=O)n3C)c(C)c1,i
Cc1ccccc1CNC(=O)C1(C)Cc2ccccc2C(=O)N1C1CCCCC1 (stereo not drawn),i
CCOC(=O)c1cc2n(n1)CC(C)(C(=O)NC1CCCCC1)N(c1ccc(OC)cc1OC)C2=O (stereo not drawn),i
C=C[C@H]1[C@H](O[C@@H]2O[C@H](CO)[C@@H](O)[C@H](OC(=O)/C=C/c3ccc(O)c(OC)c3)[C@H]2O)OC=C2C(=O)OCC[C@]21O,+
CC1(C(=O)NCc2ccccc2)Cn2c(ccc2-c2ccco2)C(=O)N1Cc1ccc(F)cc1 (stereo not drawn),i
Cc1[nH]c(/C=C2\C(=O)Nc3ccc(S(=O)(=O)N(C)c4cccc(Cl)c4)cc32)c(C)c1C(=O)N1CCN(C)CC1,+
COc1cccc(CNC(=O)Cn2ccc3cc(S(=O)(=O)N4CCCCC4)ccc32)c1,i
C#CCOc1ccccc1CN1CCN(c2ncc(F)cn2)CC1,i
Cc1ccc(CNc2nc3c(S(=O)(=O)c4ccc(C)cc4)nnn3c3ccccc23)cc1,i
CNC(=O)c1cc(C)nc2onc(C3CCN(C(=O)NC4CCCC4)C3)c12 (stereo not drawn),i
CC(C)CCn1c(=O)c2ccc(C(=O)NC3CCCC3)cc2n2c(=O)n(Cc3cccc(Cl)c3)nc12,i
Cc1nn(C)c(C)c1CCN(C)Cc1ccc(=O)n(C)c1,i
NC(N)=N[C@@H](CCC(=O)O)C(=O)O,i
CCCNC(=O)c1ncn2c1C(=O)N(C1CC1)C(C)(C(=O)NCc1ccc(F)cc1)C2 (stereo not drawn),i
CNC(=O)[C@@H]1CN(C(=O)Cc2c[nH]c3ccccc23)C[C@H]1COC,i
CC1(C(=O)NCc2ccccc2)Cn2c(cc3ccccc32)C(=O)N1CCC1=CCCCC1 (stereo not drawn),i
CCC(C)NC(=O)c1ccc2c(=O)n(Cc3ccccc3)c3nn(Cc4cccc(Cl)c4)c(=O)n3c2c1 (stereo not drawn),i
Cc1ccc(Cn2c(=O)c3ccc(C(=O)NC(C)C)cc3n3c(=O)n(CC(N)=O)nc23)cc1,i
CCCn1c(=O)c2ccccc2n2c(SCC(=O)Nc3ccc(Cl)cc3)nnc12,i
CCCNC(=O)N[C@@H]1C[C@H](COc2cccc(C)n2)[C@@H](O)[C@H]1O,i

# (next part)
Compound	Methyltransferases
CC(C)Cn1c(=O)c2ccc(C(=O)NC3CCCC3)cc2n2c(=O)n(CC(=O)NC3CCCCC3)nc12	i
CC(=O)N1CCC(N2CC[C@H](c3nc4ccccc4s3)C2)CC1	i
CCn1ncc(N2CCCC(CC(=O)Nc3cc(OC)cc(OC)c3)C2)cc1=O (stereo not drawn)	i
COc1ccccc1CNC(=O)C1(C)Cn2nc(-c3ccccc3)cc2C(=O)N1Cc1cccc(C)c1 (stereo not drawn)	i
COc1ccc(CC(=O)N(C)C2CCc3nnc(C)n3CC2)cc1Cl (stereo not drawn)	i
Cc1cccc(N2CCN(CCNC(=O)CCc3nnc4n(CCC(C)C)c(=O)c5ccccc5n34)CC2)c1C	i
CC1OC(OC2CCC3(C)C(CCC4(C)C3CC=C3C5CC(C)(C)CCC5(C(=O)OC5OC(CO)C(O)C(O)C5O)CCC34C(=O)O)C2(C)C)C(O)C(O)C1O (stereo not drawn)	i
CC1OC2OC(=O)C3(C)CC4=C(CO)C5=C(CC(=O)C4(C)C(C1=O)C23)C(C)(C)OC(=O)C5 (stereo not drawn)	i
COc1cccc(N2C(=O)NC(=NC3CCCCC3)C23CCN(CC2CC2)C3)c1 (stereo not drawn)	i
COc1ccc(C2c3cccn3-c3sc4c(c3CN2C(=O)NCc2ccc(F)cc2)CCCC4)cc1 (stereo not drawn)	i
CC1(C(=O)NC2CCCCCCC2)Cn2c(ccc2-c2ccccc2)C(=O)N1Cc1cccnc1 (stereo not drawn)	i
COCCn1nnnc1C1CC2(CCOCC2)C(=O)N1CCc1ccc(OC)c(OC)c1 (stereo not drawn)	i
C/C=C/C=C/C=C/C(=O)OC1C=C(C=O)C(O)(C(=O)O)C2(C)CCCC(C)(C)C12 (stereo not drawn)	i
CCCCN1C(=O)c2cc(C(=O)N3CCN(c4cccc(OC)c4)CC3)nn2CC1(C)C(=O)NC1CCCC1 (stereo not drawn)	i
O=C(c1cccs1)N1Cc2[nH]cnc2C[C@H]1c1nc(-c2ccc3ccccc3c2)no1	?
c1ccc(-c2[nH]nc3ncc(-c4cn[nH]c4)nc23)cc1	+
O=C(Nc1ccccc1-c1cn2c(CN3CCNCC3)csc2n1)c1ccc2ccccc2n1	i
O=C(CCc1nnc2n(Cc3ccc(F)cc3)c(=O)c3ccccc3n12)NCCc1c[nH]c2ccccc12	i
CC1CCCC(NC(=O)C2(C)Cn3c(cc4sccc43)C(=O)N2Cc2ccc(F)cc2)C1C (stereo not drawn)	i
COc1cccc(NC(=O)Cn2c(=O)oc3cc(S(=O)(=O)N4CCCCC4)ccc32)c1	i

# 2 entries from above, as labelled records:
c1ccc(-c2[nH]nc3ncc(-c4cn[nH]c4)nc23)cc1
  Methyltransferases: +
O=C(Nc1ccccc1-c1cn2c(CN3CCNCC3)csc2n1)c1ccc2ccccc2n1
  Methyltransferases: i

# (list continues)
Compound	Methyltransferases
COc1ccc(NC(=O)c2ccc3c(c2)N(C(=O)c2ccc(OC)cc2)CC3)cc1	i
COc1ccc(S(=O)(=O)N2CCC(n3c(=O)[nH]c4ccccc43)CC2)cc1	?
CC(C)c1nc(CNC(=O)c2ccc(N(C)Cc3ccccn3)nc2)no1	i
CSc1ccc(CCNC(=O)c2oc3cc4sc(N(C)C)nc4cc3c2C)cc1	i
O=C1CN(Cc2c(F)cccc2Cl)S(=O)(=O)c2ccccc2N1Cc1ccccc1F	i
CN1C(=O)c2cc(C(=O)NCc3ccccc3F)nn2CC1(C)C(=O)NC1CCCCCC1 (stereo not drawn)	i
CCCN(CC1CCOC1)C(=O)Nc1ccc(Cl)cc1 (stereo not drawn)	i
Cc1ccccc1NC(=O)c1ncn2c1C(=O)N(C1CC1)C(C)(C(=O)NCc1ccc(F)cc1)C2 (stereo not drawn)	i
Cn1cccc1C(=O)N1CC(CO)C2(CCNCC2)C1 (stereo not drawn)	i
Cc1cc(=O)oc2cc(NC(=O)[C@H](CCC(=O)O)NC(=O)[C@H](CC(C)C)NC(=O)[C@H](CC(C)C)NC(=O)OCc3ccccc3)ccc12	+

# A draw from above in order of number of heavy atoms, lowest first.
Compound	Methyltransferases
c1ccc(-c2[nH]nc3ncc(-c4cn[nH]c4)nc23)cc1	+
CCCNC(=O)N[C@@H]1C[C@H](COc2cccc(C)n2)[C@@H](O)[C@H]1O	i
COc1cccc(CN2CCCCC2c2nc(CCOCC3CCOCC3)no2)c1 (stereo not drawn)	i
O=C(CCn1ccc2cc(S(=O)(=O)N3CCCCC3)ccc21)NCCCc1ccccc1	i
CCc1ccccc1NC(=O)Cn1nc2n(C)c(=O)c3ccc(C(=O)NC4CCCCC4)cc3n2c1=O	i
COC(=O)C1=COC(O[C@@H]2O[C@H](COC(=O)/C=C/c3ccc(O)cc3)[C@@H](O)[C@H](O)[C@H]2O)C2C(CO)=CCC12 (stereo partly drawn)	i
Cc1[nH]c(/C=C2\C(=O)Nc3ccc(S(=O)(=O)N(C)c4cccc(Cl)c4)cc32)c(C)c1C(=O)N1CCN(C)CC1	+

# Going on with the list:
Compound	Methyltransferases
C[C@@H]1CN(C(=O)CCSCc2ccccc2)CC[C@@]1(O)C1CCOCC1	i
O=C(NCc1cccc(C(F)(F)F)c1)c1nn(CCOc2ccccc2)c2c1CNCC2	i
CC(C)CCNC(=O)C1c2c(n(C)c3ccccc23)SCC(=O)N1c1cccc(F)c1 (stereo not drawn)	i
COCCc1noc(-c2ccccc2OC2CN(C(=O)Cc3c[nH]c4ccccc34)C2)n1	i
O=C(CCC1CCCN(S(=O)(=O)c2ccccc2F)C1)NCc1cccs1 (stereo not drawn)	i
CCCCCCCCCCC(C)(C)C(=O)Nc1c(OC)cc(OC)cc1OC	i
CC(=O)N1CCC(N[C@@H]2CO[C@H](CNS(C)(=O)=O)[C@H]2O)CC1	i
CC(C)Cn1c(=O)c2ccccc2n2c(CCC(=O)NCCc3c[nH]c4ccccc34)nnc12	i
CCc1ccc(N2CC(c3noc(-c4sccc4C)n3)CC2=O)cc1 (stereo not drawn)	i
CNC(=O)c1cc[nH]c1C1CCCN(C(=O)c2ccc(Cn3cncn3)o2)C1 (stereo not drawn)	i
